miR-21 reporter – raises the signal of a miR-21 reporter. HeLa miR-21 FLuc reporter, luciferase, 48 h. Potency, µM (top dose mostly 38.3 µM), inactives show at the highest dose reporter change, positive = more light. 340,000 tested, under 10 active. AID 2288; active = well fitted rising curve with a large enough effect; inconclusive = small, poorly fitted or top-dose-only effect; inactive = no such curve, though single readings can be large or run the other way;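 further: % of control where 0% means no effect; miR-21 action dims this reporter so a rising signal means less miR-21 action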
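Luminescence from a firefly luciferase reporter carrying a miR-21 binding site downstream, stably expressed under a CMV promoter in HeLa cells that make miR-21 endogenously, reports miRNA modulation after 48 h compound exposure up to approximately 40uM final.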
Rango release inh – inhibitors of RanGTP-induced Rango-importin beta complex dissociation. Biochemical FRET Rango-importin beta, RanGTP-induced dissociation. 0.071% of 340,000 active. Potency, µM (highest dose often 46.1 µM), for the others: at the highest dose activity change, negative = inhibition; active means falling FRET ratio curve, often poorly fitted, with flat reads before Ran was added; inconclusive means other falling curves, or compound fluorescence or quenching; inactive means flat or rising ratio curve;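 further: potency means the concentration at half of the fitted maximal effect; % of control where 0% means no effect; nearly all actives have a fitted effect of over 45% in size; -100% = wells without RanGTP and RCC1; the record marks most hits as doubtful in a second field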
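FRET read at 45 min, room temperature: inhibitors block the CFP/YFP signal rise when RanGTP (0.6 uM Ran, 2 mM GTP, 0.2 uM RCC1) frees Rango (0.1 uM) from importin beta (0.25 uM). Pre-read after 5 min compound exposure flags interference.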
Rango complex inh – inhibitors of Rango-importin beta complex formation; Q14974; Rango CFP/YFP FRET sensor + importin beta, 45 min; Potency, µM (highest dose often 92.2 µM), inactives show at the highest dose inhibition of complex formation; 0.031% of 340,000 active; AID 540263; active = rising FRET ratio curve, often small or poorly fitted; inconclusive = mostly compound fluorescence or quenching in the first reads; inactive = flat curves in all reads;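 further: potency means the concentration at half of the fitted maximal effect; 0% = DMSO wells and 100% = buffer wells lacking importin beta; nearly all actives have a fitted effect of over 15% in size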
Target sequence (Q14974 whole entry, looked up): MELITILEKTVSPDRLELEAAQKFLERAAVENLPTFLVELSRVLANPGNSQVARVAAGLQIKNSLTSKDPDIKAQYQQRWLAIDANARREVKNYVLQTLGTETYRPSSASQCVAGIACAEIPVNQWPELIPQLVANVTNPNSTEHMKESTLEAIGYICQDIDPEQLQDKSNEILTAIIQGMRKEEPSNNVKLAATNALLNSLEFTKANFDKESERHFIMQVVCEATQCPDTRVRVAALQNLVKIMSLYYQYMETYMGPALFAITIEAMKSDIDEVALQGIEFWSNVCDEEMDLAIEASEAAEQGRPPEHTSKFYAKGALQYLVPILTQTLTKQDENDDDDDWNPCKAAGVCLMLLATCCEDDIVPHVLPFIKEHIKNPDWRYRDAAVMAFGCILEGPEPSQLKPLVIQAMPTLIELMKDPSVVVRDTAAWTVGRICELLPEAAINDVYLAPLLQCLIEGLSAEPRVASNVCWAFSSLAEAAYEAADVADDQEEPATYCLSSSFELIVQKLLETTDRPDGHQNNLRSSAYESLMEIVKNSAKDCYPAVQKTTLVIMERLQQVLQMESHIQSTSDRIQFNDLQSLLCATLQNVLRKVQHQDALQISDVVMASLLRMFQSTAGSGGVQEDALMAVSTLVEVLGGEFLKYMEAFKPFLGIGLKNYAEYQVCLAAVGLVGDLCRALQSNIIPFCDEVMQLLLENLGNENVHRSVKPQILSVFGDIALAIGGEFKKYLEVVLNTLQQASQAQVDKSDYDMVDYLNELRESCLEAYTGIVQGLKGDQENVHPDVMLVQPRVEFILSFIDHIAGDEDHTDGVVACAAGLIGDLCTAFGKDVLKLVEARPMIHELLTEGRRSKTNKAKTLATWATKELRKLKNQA
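Inhibition scored from the CFP 486 nm/YFP 530 nm FRET ratio 45 min after adding 0.125 microM importin beta to 50 nM Rango biosensor preincubated 5 min with compound (room temperature, PBS with DTT, Tween-20, BSA). No-importin wells as positive control.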
GLA inh pH 4.5 – blocks human alpha-galactosidase A at pH 4.5; 230,000 tested, under 10 active; activity change, negative = inhibition, % at 105 µM; P06280; purified enzyme, 4-MU-alpha-Gal fluorescence, pH 4.5; inconclusive = small, poorly fitted or top-dose-only inhibition, or a rising curve; inactive = flat fitted curve, though single readings scatter; no compound was filed as active;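 further: 0% = full activity with enzyme and -100% = basal without enzyme; dose as in the result columns while the protocol names 77 µM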
Starred values were filed as active, the others as inactive; ? = inconclusive; nt = not tested or not shown; & = joins results of further samples. A portion of the library. The share of hits here may be higher or lower than overall.

miR-21 reporter	Rango release inh	Rango complex inh	GLA inh pH 4.5	smiles
2.4%	-6.3%	1.9%	5.8	CCOC(=O)c1ccc(S(=O)(=O)NNC(=O)COc2ccccc2C)cc1
-2.5%	?	?	7.4	Cc1nc2ncccn2c1-c1csc(Nc2ccccc2)n1
-39.3%	-3.0%	-0.9%	9.4	O=C(CSCC(=O)N1CCCc2ccccc21)Nc1nc(-c2ccccc2)cs1
nt	-5.2%	?	nt	NC(=O)c1cc([N+](=O)[O-])c(Cl)cc1NCc1ccncc1
20.4%	-0.1%	0.7%	nt	COc1cccc(O)c1CN1CCC(C(=O)Nc2ccc(-c3cccc(C)c3)cc2)CC1
-14.1%	0.3%	2.1%	nt	Cc1noc(NS(=O)(=O)c2ccc(NC(=O)/C=C/c3ccc(C(C)C)cc3)cc2)c1C
-1.2%	-4.0%	-0.3%	nt	O=C(CSc1nc(NS(=O)(=O)c2ccccc2)cc(=O)[nH]1)Nc1ccccc1Cl
-5.9%	-2.0%	0.0%	nt	C=C(C)COc1ccc(-c2ncncc2-c2ccccc2)c(O)c1
1.0%	0.3%	-2.1%	-10.7	O=C(N/N=C/c1ccc([N+](=O)[O-])cc1)C(=O)N1CCCC1
11.6%	-8.2%	-3.2%	-6.2	O=C(/C=C/c1ccco1)Nc1cccc(NC(=O)/C=C/c2ccco2)n1
13.3%	-1.3%	-3.8%	-4.1	CCOc1ccc(-n2c(SCC(=O)NCc3ccco3)nnc2-c2c[nH]c3ccccc23)cc1
0.2%	-1.6%	4.5%	nt	CCCn1c2ccccc2c2cnn(CC(=O)N3CCN(C4CCCCC4)CC3)c(=O)c21
-3.3%&0.0%	14.5%	-1.0%	nt	CCN1C(=NCCN2CCOCC2)N[C@@H](c2ccccc2)C(C(=O)OC)=C1C
-3.3%	0.1%	0.4%	nt	COc1ccc(C(=O)NC2CCc3ccccc32)cc1OC1CCN(C(C)=O)CC1 (stereo not given)
nt	7.2%	0.4%	nt	C[C@H](NC(=O)c1nc[nH]c1C(=O)NCCCCCN)C(=O)OC(C)(C)C
7.0%	20.7%	-4.5%	0.8	CCN(CC)c1ccc(/C=N/N2CCN(Cc3ccc(Cl)cc3)CC2)c(O)c1
0.4%	-3.3%	-2.0%	-8.8	Cc1nc(-c2nnc(SCC(=O)Nc3ccc(Cl)cc3)n2C)cs1
nt	-13.1%	-4.0%	nt	O=C(CSc1ncnc2c1oc1ccccc12)NCC1CCCO1 (stereo not given)
-4.2%	-8.2%	3.4%	3.9	CC1CN(c2oc(-c3ccco3)nc2C#N)CC(C)O1 (stereo not given)
0.7%	1.2%	1.2%	nt	CCn1c(=O)c2cc(C(=O)NCCOC)sc2c2ccccc21

Grouped by structure: the compounds so far with a furan ring, fused or not (four)
miR-21 reporter	Rango release inh	Rango complex inh	GLA inh pH 4.5	smiles
11.6%	-8.2%	-3.2%	-6.2	O=C(/C=C/c1ccco1)Nc1cccc(NC(=O)/C=C/c2ccco2)n1
13.3%	-1.3%	-3.8%	-4.1	CCOc1ccc(-n2c(SCC(=O)NCc3ccco3)nnc2-c2c[nH]c3ccccc23)cc1
nt	-13.1%	-4.0%	nt	O=C(CSc1ncnc2c1oc1ccccc12)NCC1CCCO1 (stereo not given)
-4.2%	-8.2%	3.4%	3.9	CC1CN(c2oc(-c3ccco3)nc2C#N)CC(C)O1 (stereo not given)

New compounds follow.
miR-21 reporter	Rango release inh	Rango complex inh	GLA inh pH 4.5	smiles
-1.9%	18.6%	1.3%	nt	COc1ccc(NS(=O)(=O)c2ccc(NS(=O)(=O)c3cccc(C(=O)O)c3)cc2)cc1
nt	-10.6%	4.3%	nt	O=C(Nc1ccon1)c1nc[nH]c1C(=O)N1CCN(c2ccccc2)CC1
nt	-1.0%	0.5%	nt	Cc1ccc(S(=O)(=O)N(CC(=O)Nc2ccc(C)c(Cl)c2)C(=O)N2CCN(C)CC2)cc1
1.7%	-4.9%	2.1%	nt	COc1ccc(N2CC(C(=O)N3CCN(c4ccccc4F)CC3)CC2=O)cc1 (stereo not given)
-8.0%	1.1%	-0.7%	-7.3	CCOc1ccccc1Nc1nnc(SCc2ccc(C(=O)OC)o2)s1
0.1%	0.0%	-2.2%	nt	CCOc1ccc(C(CC(=O)O)NC(=O)C(CC)c2ccccc2)cc1 (stereo not given)
-7.4%	-21.2%	-0.7%	6.9	O=C(CCCCn1c(=O)[nH]c2ccsc2c1=O)NCc1ccc2c(c1)OCO2
nt	-0.5%	0.0%	nt	N#Cc1ccccc1OCC(=O)OCC(=O)NC1CC1
-1.5%	4.9%	0.4%	nt	CCOc1ccc2nc(SCC(=O)NCc3ccccc3)[nH]c2c1
-7.0%	2.0%	2.1%	-2.4	CCOC(=O)C1C(=O)CC(C)(O)C(C(=O)OCC)C1c1cccc(OC(F)(F)C(F)F)c1 (stereo not given)
1.7%	7.8%	-1.1%	-8.0	CCOc1ccc(C(=O)NC2CC3CCCC(C2)N3CC(C)C)cc1 (stereo not given)
-36.6%	?	?	3.4	Cc1ccc2nc(N3C(=O)C(O)=C(C(=O)c4cc5ccccc5o4)C3c3cccs3)sc2c1 (stereo not given)
-0.5%	-25.9%	-1.1%	-5.5	c1ccc(-n2c(-c3ccco3)nnc2-c2ccco2)cc1
-0.9%	3.0%	-1.0%	nt	NC(=O)Cn1cnc2c(nnn2-c2cccc(Cl)c2)c1=O
-10.5%	0.4%	0.9%	-0.2	O=C(O)c1cc(NS(=O)(=O)c2ccc(N3CCOCC3)c([N+](=O)[O-])c2)cc(C(=O)O)c1
-3.4%	-0.6%	-0.9%	-0.9	CN1CCN(CC(=O)Nc2ccc([N+](=O)[O-])cc2Br)CC1
-14.1%	-8.3%	0.0%	-11.2	CCc1nc(NCc2ccc3c(c2)OCO3)c2oc3ccccc3c2n1
-0.5%	-15.5%	2.0%	1.5	CC(C)NC(=O)c1cc2c(-c3ccc(Cl)cc3)nn(C)c2s1
-5.5%	-14.6%	-1.3%	-9.3	Cc1ccc(NC(=O)C2CCN(S(=O)(=O)c3c(C)noc3/C=C/c3ccco3)CC2)nc1
1.2%	2.3%	-0.6%	-2.2	Cc1cc(C)nc(/N=C(\NC(=O)C(C)(C)C)Nc2ccccc2)n1
-10.9%	6.7%	?	nt	O=C(CSc1n[nH]c(-c2cccnc2)n1)Nc1ccc(Br)cc1
-2.2%	-1.4%	-1.0%	-5.4	CCn1c(SCC(=O)NNC(=O)c2ccccc2)nnc1-c1ccncc1
-1.0%	-14.1%	-1.9%	nt	CC(C)Oc1cccc(C2NC(=O)c3ccccc3O2)c1 (stereo not given)
-6.9%	13.3%	-1.2%	-3.7	CCN(CC)S(=O)(=O)c1ccc(C(=O)OCn2nnc3ccccc3c2=O)cc1
-0.1%	-0.2%	0.6%	?	O=C(NCC1CCCO1)C(c1cccs1)N(Cc1cccs1)C(=O)Cn1nnc(-c2cccs2)n1 (stereo not given)
-2.8%	-12.6%	0.4%	-2.1	Cn1nc(OCC(=O)O)cc1C(F)(F)F
nt	5.5%	5.0%	nt	COc1ccc(CCC(=O)OCC(=O)NCc2ccc(OC)c(OC)c2)cc1OC
-1.8%	-8.7%	-1.6%	nt	O=C1NN(c2cccc(Br)c2)C(=O)/C1=C\c1ccc(O)cc1
13.2%	1.0%	0.9%	-5.8	COc1ccc(N2CCN(C(=O)CSc3nc4[nH]ncc4c(=O)n3-c3cccc4ccccc34)CC2)cc1
-2.5%	14.3%	0.4%	-2.7&6.9	Cn1c(=O)cc(N)n(Cc2ccccc2)c1=O
4.1%	-0.3%	-0.8%	-8.4	CCc1cc(-c2onc(C)c2-c2cscn2)c(O)cc1OC
-2.5%	-12.0%	-3.5%	nt	CCc1ccc2oc(C(=O)NCCc3ccc(S(N)(=O)=O)cc3)cc(=O)c2c1
-5.1%	14.4%	5.2%	-1.8	O=C(NCc1ccccn1)C1CCN(S(=O)(=O)N2CCCC2)CC1
-16.4%	?	-1.1%	3.5	CC(C)(C)c1ccc(C(=O)c2c[nH]c(C(=O)NCC3CCCO3)c2)cc1 (stereo not given)
1.2%	1.2%	-1.9%	2.4	Cn1nc(C(=O)OCC(=O)N2CCc3ccccc32)c2ccccc2c1=O
-1.4%	-8.8%	1.1%	nt	CN(C)S(=O)(=O)c1cccc(COC(=O)CN2CCCCCC2=O)c1
-0.4%	1.5%	4.7%	-8.0	CCN(CC)C(=O)c1cnn(-c2ccccc2)c1NC(=O)c1ccco1
-7.4%	-9.4%	0.3%	2.8	CCc1ccc(OCC(=O)NNC(=O)CSc2ncnc3sc(C)c(C)c23)cc1
1.5%	-4.9%	1.1%	nt	CCn1cc(C(=O)NCc2ccc(Cl)cc2)c(=O)c2cc(S(=O)(=O)N(C)C)ccc21
-12.8%	-1.8%	5.4%	-1.3	CSc1nnnn1-c1c(C)cc(C)cc1C
nt	-3.2%	0.0%	nt	CC(=O)Nc1ccc2c(c1)C(N1CC3CCC(CC3)C1)c1ccccc1-2 (stereo not given)
-0.1%	-7.1%	-0.7%	3.9	Cn1c(SCc2nc(-c3cccs3)no2)nnc1C1CCCCC1
-3.3%	9.8%	0.1%	-4.2	O=C(CN1CCN(Cc2ccc(Cl)cc2)CC1)N/N=C/c1ccncc1
nt	-0.3%	2.3%	nt	COc1ccccc1CCC(=O)OCC(=O)Nc1cc(C)nn1-c1ccccc1
0.6%	1.9%	-3.6%	-28.6	CCOC(=O)N1CCN(C(=S)NC(=O)c2cc(Br)ccc2Cl)CC1
0.0%	?	?	3.1	COc1ccc(/C=C2\N=C(SC)SC2=O)cc1OC
-6.6%	3.5%	3.1%	nt	CCN(CC)S(=O)(=O)c1ccc(NCCc2ccccn2)nc1
-0.2%	6.7%	-4.4%	-6.2	NC(=NC(=O)c1ccccc1)N1CCN(C(c2ccccc2)c2ccccc2)CC1
-76.4%	-11.7%	4.6%	-2.2	N#Cc1c(/N=C/c2cccs2)sc2c1CCCCC2
nt	-13.8%	-1.5%	nt	CN(Cc1ccccc1)C(=O)c1ccc(NC(=O)Cc2cccc(NC(=O)C3CCCN(C(=O)CCc4ccccc4)C3)c2)cc1 (stereo not given)
1.4%	11.1%	0.0%	nt	Cc1cc(OCC(=O)N2CCC(C(N)=O)CC2)c2c(C)cc(=O)oc2c1
3.8%	1.4%	0.1%	-0.8	Cc1nc2nc(SCC(=O)NCc3ccco3)nn2c(C)c1Cc1c(F)cccc1Cl
-0.3%	?	-4.2%	nt	Cc1cc(=O)[nH]c(SCC(=O)N2CCCCC2)n1
9.0%	-0.8%	3.5%	nt	COCCCN1CN=C(NS(=O)(=O)c2ccc(C)cc2)NC1
-3.1%	-3.7%	-1.5%	3.4	O=C(c1cccc(C(F)(F)F)c1)c1c[nH]c(C(=O)NCCCN2CCOCC2)c1
-10.3%	2.4%	0.3%	-11.8	Cc1c(C#N)c(N)c(C(=O)c2ccccc2)n1Cc1ccccc1
nt	-0.1%	4.8%	nt	N#CCC(=O)Nc1ccc(C(=O)OCC(=O)N2CCCC2=O)cc1
7.5%	-1.7%	-5.4%	-1.6	COc1cccc(NC(=O)c2cc([N+](=O)[O-])ccc2NC(=O)CNCC2CCCO2)c1 (stereo not given)
-2.7%	0.6%	-0.8%	-6.0	COCCn1nnnc1C(CC(C)C)N1CCN(c2cccc(OC)c2)CC1 (stereo not given)
-9.6%	2.7%	-0.7%	9.4	Nn1cc(-c2ccccc2)nc1SCC(=O)Nc1ccc2c(c1)OCO2

Remaining list, next part
miR-21 reporter	Rango release inh	Rango complex inh	GLA inh pH 4.5	smiles
-3.4%	1.6%	-4.1%	0.7	Cc1cc(C(=O)NCC(=O)O)c(C)o1
-1.3%	-8.5%	-0.5%	nt	Cc1cc(C)c(S(=O)(=O)N2CCCc3ccccc32)c(C)c1
-9.3%	2.2%	-3.6%	nt	CC(C)CCNC(=O)C(=O)Nc1cc2c3c(c1)CC(=O)N3CCC2
-10.3%&-7.6%	12.2%	3.7%	8.4&-5.0	Cn1ncc2c(NCc3ccccc3)ncnc21
-1.2%	0.0%	8.2%	nt	CCC(=O)Nc1ccc2c(c1)N(C(C)=O)c1ccccc1CC2
nt	25.2%	0.0%	nt	COc1cccc(CN(C)C(=O)c2cc(S(=O)(=O)NCc3ccccc3)ccc2C)c1OC
-0.5%	-1.2%	-6.8%	4.4	O=C1Cc2ccccc2C(c2ccc(Br)cc2)N1 (stereo not given)
